Source: PubChem (Southern Research Institute)
Mtb growth = Confirmatory growth inhibition assay against Mycobacterium tuberculosis H37Rv, potency (AID 1949); one-dose inhibition, % at 10 µg/mL; IC50 in µg/mL for titrated hits; most inactive calls were filed without a number and no value below 0 was filed; actives 1.6% (n = 100,000);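 active = confirmed in a dose series; inconclusive = about 50% or more but not retested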;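 note: bacteria grown 7 days with compound before Alamar blue readout; 0% = untreated bacteria and 100% = reference antibiotic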
Numbers without * were called inactive; i = inactive; ? = inconclusive. Only part of the results is shown (hit frequency here may not be typical).

SMILES | Mtb growth
Cc1cc(NC(=O)CCCSc2nc(-c3ccco3)cc(C(F)(F)F)n2)no1 | i
COc1ccccc1N1CCN(C(=O)C2COc3ccccc3O2)CC1 (stereo not drawn) | i
COC(=O)c1ccccc1OC(=O)COc1ccc(Cl)cc1Cl | i
CCc1ccc(N(CC(=O)NC2CC3CCC2C3)S(C)(=O)=O)cc1 (stereo not drawn) | i
O=C(NCc1ccccn1)c1ccc(Cl)c(S(=O)(=O)N2CCOCC2)c1 | i
Cc1nc2cc(NC(=O)Nc3ccccc3Cl)ccc2n1C | i
Cc1ccc(S(=O)(=O)Nc2nc3ccc(S(=O)(=O)N4CCCC4)cc3s2)cc1 | i
Cc1cc(C(=O)NC(C)c2ccncc2)cs1 (stereo not drawn) | i
CCc1nc(SCc2cccc(Cl)c2)n[nH]1 | 20%
O=S1(=O)C=CC2ON=C(c3ccc(Cl)cc3)C21 (stereo not drawn) | 1.1µg/mL*
CCCC(=O)NC(=S)Nc1ccccc1C(N)=O | i
C=C(C)c1cccc(C(C)(C)NC(=O)N2CCC(C(N)=O)CC2)c1 | i
O=C(Nc1ccccc1)c1cc([N+](=O)[O-])ccc1NCc1cccnc1 | i
Cc1cc(C)n(C(=O)c2c(F)c(F)c(F)c(F)c2F)n1 | i
CCOC(=O)c1c(-c2ccccc2)oc2ccc(O)c(CN3CCOCC3)c12 | 50%
S=C(NCc1ccco1)Nc1cccnc1 | i
CCCC(=O)c1cc2c(cc1NC(=O)c1ccccc1Br)OCCO2 | 2%
O=C1c2ccccc2C(=O)N1CCC1=CCCCC1 | i
CN(C)S(=O)(=O)NCc1ccc2c(c1)OCO2 | i
c1coc(-c2nc3cc4ccccc4cc3nc2-c2ccco2)c1 | ?
O=[N+]([O-])c1ccc(Sc2n[nH]c(-c3ccc(Cl)cc3Cl)n2)nc1 | i
CC(=O)c1ccc(NC(=O)CC2Sc3ccccc3NC2=O)cc1 (stereo not drawn) | i
NC(=O)C1CCN(C(=O)CSc2nc3ccccc3o2)CC1 | i
CCN(CC)C(=O)C1=C(C)NC(=O)NC1c1ccc(OC)c(Cl)c1 (stereo not drawn) | i
C=CCc1c(C)nc(SCCC)[nH]c1=O | 5%
CCOC(=O)C1Nc2ccc(Br)cc2C2C=CCC12 (stereo not drawn) | i
COC(=O)c1c(NC(=S)NCc2ccc(Cl)c(Cl)c2)sc(C(=O)N(C)C)c1C | i
CCCOc1ccc(CCc2nnc(SCC(=O)O)n2Cc2ccccc2)cc1 | i
O=C(c1cccc([N+](=O)[O-])c1)c1ccccn1 | 4%
Cc1ccc2nc(/C(C#N)=C\c3cc(C)n(C)c3C)[nH]c2c1 | 15%
CCCNC(=O)Cc1coc2cc(C)cc(C)c12 | i
Cc1ccccc1OCC(=O)Nc1ccc(N2CCN(Cc3ccccc3Cl)CC2)cc1 | i
COc1ccc([N+](=O)[O-])cc1CSc1nnc(-c2ccc(NC(=O)c3ccccc3Cl)cc2)n1C | i
COc1ccc(NC(=O)NC(=O)c2ccccc2)cc1 | i
COC(=O)c1ccc(COc2ccc(C(C)C)cc2)cc1 | 35%
CCOCCc1nnc(NC(=O)CCCOc2ccc(Cl)cc2Cl)s1 | i
CCCOc1ccc(NC(=O)C2CC(=O)N(C3CCCCC3)C2)cc1 (stereo not drawn) | i
CCOC(=O)C1=C(C)NC2=C(C(=O)c3ccccc32)C1c1ccco1 (stereo not drawn) | i
COc1ccc(N2C(=O)CC(N3CCN(c4ccccc4O)CC3)C2=O)cc1 (stereo not drawn) | i
O=C(Cc1cccs1)Nc1ccc(-c2nc3ccccc3o2)cc1 | i
CCn1c(SCC(=O)Nc2sc3c(c2C#N)CCCC3)nnc1-c1cccc(Cl)c1 | 4%
CN1CCN(NC(=S)NCc2ccc(Cl)cc2)CC1 | i
Cc1ccccc1C(=O)Nc1sc2c(c1C(=O)N1CCOCC1)CCCC2 | i
CC(=O)Nc1ccc(NC(=O)CN(c2cccc(Br)c2)S(C)(=O)=O)cc1 | 1%
CCOC(=O)c1c(NC(=O)CCOc2ccccc2)sc(C)c1C | i
Cc1cc(C)cc(C(=O)O/N=C(\N)c2ccc(Br)cc2)c1 | i
COc1cc(-c2nc(-c3ccccc3)c(-c3ccc(O)cc3)[nH]2)cc(OC)c1OC | i
COc1ccc(NC(=O)Nc2cccc(Cl)c2Cl)c([N+](=O)[O-])c1 | i
CCC(=O)N1N=C2C(C)CN(C)C(C)C2C1c1ccco1 (stereo not drawn) | i
COc1ccc(N2CCN(C(=O)COc3ccc(C(C)C)cc3)CC2)cc1 | 4%
(further entries)
SMILES | Mtb growth
COc1ccc(-c2nc3scc(-c4ccccc4)n3n2)cc1 | 0%
Cc1ccc(NC(=O)CCSc2ccccc2)c(C)c1 | i
SC(COCc1ccccc1)CN1CCN(c2ccccc2)CC1 (stereo not drawn) | 5%
Cc1ccc(CN(c2ccc(C(=O)N3CCN(C)CC3)cc2)S(C)(=O)=O)cc1 | i
CC(=O)Cc1nsc(NC(=O)c2ccc(-c3ccc(Cl)cc3Cl)o2)n1 | 0%
c1ccc(-c2nnc(OCc3cccnc3)c3ccccc23)cc1 | i
Cc1ccc(NC(=O)c2ccco2)c(NC(=O)c2ccccc2C)c1 | i
Cc1ccc2c(=O)c(CN3CCCCC3)c(C)[nH]c2c1C | i
O=c1c2ccccc2[nH]c(=S)n1C1CC1 | i
CC(=O)c1c(C)nn(CC(O)COc2ccc3c(c2)CCC3)c1C (stereo not drawn) | i
C=CCn1c(SCC(=O)NCc2ccccc2)nnc1-c1ccccc1Cl | i
CCc1ccccc1NC(=O)COc1cccc(Cl)c1 | 32%
COc1cccc(C(=O)Nc2ccc(I)cc2)c1OC | i
CCC(=O)N(CCC(c1ccc(C)cc1)c1ccco1)Cc1ccco1 (stereo not drawn) | i
C=CCN(CC=C)Cc1c(C)[nH]c2ccc(C(=O)OCC)cc2c1=O | i
COC(=O)c1cc(OC)c(OC)cc1NC(=O)c1ccc(OC)c(OC)c1 | 4%
Cc1ccc(S(=O)(=O)N(CC(=O)Nc2ccccc2C(=O)O)c2ccccc2C)cc1 | i
CCOc1ccccc1NC(=O)NNC(=O)C(C)(C)C | i
COC(=O)c1ccc(NC(=S)NCCC2=CCCCC2)cc1 | 34%
O=C(Nc1ccc(I)cn1)c1cccnc1 | i
COc1ccc(CCNC(=O)C(C)(C(F)(F)F)C(F)(F)F)cc1OC | i
CS(=O)(=O)N(CC(=O)Nc1cccc(F)c1)c1cccc(Cl)c1Cl | i
O=C(CN1CCCC1)Nc1sc2c(c1C(=O)Nc1ccc(Br)cc1)CCC2 | 1%
c1ccc(CCNc2ncnc3sc4c(c23)CCC4)cc1 | 35%
O=C(NCCN1CCCCC1)NC1CCCCC1 | i
Cc1ccc(C(=O)N(C)Cc2ccccc2)cc1Br | i
CCn1c2ccccc2c2cc(NC(=O)CCCN3C(=O)CCC3=O)ccc21 | i
COc1ccccc1C(=O)NCc1ccc(Cl)c(Cl)c1 | 0%
CC(=O)c1ccccc1OC(=O)COc1ccc2ccccc2c1Br | 4%
COC(=O)c1ccccc1-n1c(CCC(=O)O)ccc1-c1ccc(OC)cc1 | i

Part of the list above in order of length of the SMILES, smallest number first.
SMILES | Mtb growth
CCc1nc(SCc2cccc(Cl)c2)n[nH]1 | 20%
O=C1c2ccccc2C(=O)N1CCC1=CCCCC1 | i
CN1CCN(NC(=S)NCc2ccc(Cl)cc2)CC1 | i
c1ccc(CCNc2ncnc3sc4c(c23)CCC4)cc1 | 35%
O=S1(=O)C=CC2ON=C(c3ccc(Cl)cc3)C21 (stereo not drawn) | 1.1µg/mL*
O=C(c1cccc([N+](=O)[O-])c1)c1ccccn1 | 4%
COc1ccc(-c2nc3scc(-c4ccccc4)n3n2)cc1 | 0%
c1ccc(-c2nnc(OCc3cccnc3)c3ccccc23)cc1 | i
c1coc(-c2nc3cc4ccccc4cc3nc2-c2ccco2)c1 | ?
CC(=O)c1ccc(NC(=O)CC2Sc3ccccc3NC2=O)cc1 (stereo not drawn) | i
Cc1cc(C)cc(C(=O)O/N=C(\N)c2ccc(Br)cc2)c1 | i
CC(=O)c1c(C)nn(CC(O)COc2ccc3c(c2)CCC3)c1C (stereo not drawn) | i
COc1ccc(N2CCN(C(=O)COc3ccc(C(C)C)cc3)CC2)cc1 | 4%
C=C(C)c1cccc(C(C)(C)NC(=O)N2CCC(C(N)=O)CC2)c1 | i
O=C(CN1CCCC1)Nc1sc2c(c1C(=O)Nc1ccc(Br)cc1)CCC2 | 1%
Cc1ccccc1OCC(=O)Nc1ccc(N2CCN(Cc3ccccc3Cl)CC2)cc1 | i
CCn1c(SCC(=O)Nc2sc3c(c2C#N)CCCC3)nnc1-c1cccc(Cl)c1 | 4%
COc1cc(-c2nc(-c3ccccc3)c(-c3ccc(O)cc3)[nH]2)cc(OC)c1OC | i

Continued:
SMILES | Mtb growth
CCOC(=O)C1=C(C)NC(SCc2ccccn2)=C(C#N)C1c1ccc(C(=O)OC)cc1 (stereo not drawn) | i
COCCNC(=S)c1ccc(N(C)C)cc1 | 0%
OCCN1CCN(CC(O)COc2ccc3c(c2)CCC3)CC1 (stereo not drawn) | i
Cc1ccccc1NC(=O)CSc1nnc(-c2ccco2)n1C | i
CCOC(=O)C(NC(C)=O)C(=O)OCC | i
CCOc1cc(S(=O)(=O)N2CCN(C(=O)c3ccco3)CC2)ccc1F | 9%
COC(=O)c1ccc(NC(=O)CN(C)S(=O)(=O)c2c(C)cc(C)cc2C)cc1 | i
N#CC1(c2ccc(OCc3ccccc3)cc2)CC(=O)N1Cc1ccccc1 (stereo not drawn) | 0%
COCC(=O)Oc1ccc(/C=C/[N+](=O)[O-])cc1OC | 3%
CCOC(=O)C12C(=O)OC(C)(C)C1C2(CC)C(=O)c1ccc(F)cc1 (stereo not drawn) | i
CCOC(=O)c1c(NC(=S)Nc2cccc(C)c2)sc2c1CC(C(C)C)OC2 (stereo not drawn) | i
O=C1CC(C(=O)Nc2ccccc2)N=C(N2CCN(Cc3ccccc3)CC2)N1 (stereo not drawn) | i
COc1cc(COc2ccc3c(C(F)(F)F)cc(=O)oc3c2C)cc(OC)c1OC | i
CCCN(CCC)Cc1nc2c(c(=O)[nH]1)C1(CCCCC1)Cc1ccccc1-2 | i
Cc1ccc(SCC(=O)Nc2cccc(C)c2)cc1 | 11µg/mL*
C=CCc1cc(Cl)ccc1OCCCNC(C)C | i
CC(C)NC(=O)c1ccc2ccccc2n1 | 2%
CCN(CC(=O)Nc1ccccc1C(=O)OC)S(=O)(=O)c1ccc(Br)cc1 | i
O=C(Nc1ccc(S(=O)(=O)Nc2ccccn2)cc1)c1ccccc1 | i
CCCn1nc(CC(=O)OCC)c2ccccc2c1=O | i
O=c1c2cc(I)ccc2nc(/C=C/c2ccc([N+](=O)[O-])o2)n1Cc1ccccc1 | i
O=S(=O)(Nc1ccc(F)cc1)N1CCOCC1 | i
Cc1cc(C(=O)Nc2sccc2C(=O)Nc2ccccc2F)cs1 | i
COc1ccc(Cl)cc1N/C(N)=N/c1nc(CSc2ccc(C)cc2)cc(=O)[nH]1 | i
CCN(CC)C(=O)c1sc(NC(=O)CCc2ccccc2)c(C(=O)OC(C)C)c1C | i
CC(C)(C)c1ccc(C(=O)Nc2ccc(I)cc2C(F)(F)F)cc1 | i
O=S(=O)(Cc1ccccc1)N1CCN(CC2CC=CCC2)CC1 (stereo not drawn) | i
COC(=O)c1ccccc1OC(=O)c1ccc(Br)o1 | i
CCCc1nnc(NC(=O)c2cncc(Br)c2)s1 | 3%
Cc1ccc(C(=O)N2CCC(C(=O)NC3CCCC3)CC2)cc1 | i
Cc1ccc2nc(-c3ccccc3)c(NC(=O)c3ccc(Cl)cc3)n2c1 | i
O=C1C2C3C=CC(C4CC34)C2C(=O)N1c1ccc(Oc2ccccc2)cc1 (stereo not drawn) | i
C=CCNc1cc(N2CCNCC2)ccc1[N+](=O)[O-] | i
Cc1ccccc1OCc1nc2ccccc2c(=O)n1N | 3%
CC1(C)C(=O)Nc2ccccc2N1C(=O)c1cccc([N+](=O)[O-])c1 | i
COc1cccc(-c2ccc3c(N)c(C(=O)c4ccc(OC)c(OC)c4)sc3n2)c1 | 1%
Cc1nccn1-c1ccc(C(F)(F)F)cn1 | 0%
O=C(CC12CC3CC(CC(C3)C1)C2)NC(=S)Nc1ccc(CN2CCOCC2)cc1 | i
CC(C)NC(=O)c1ccc(COCC(F)(F)C(F)F)o1 | 1%
CCOc1ccc(N(CC(=O)NCc2ccco2)S(=O)(=O)c2ccc(OC)c(OC)c2)cc1 | i
COc1cccc(C(=O)NCc2cccnc2)c1OC | i
O=C(CC1CCCCC1)NCc1ccc(Cl)cc1 | i
Nc1nc(-c2cccs2)cc(C(F)(F)F)n1 | i
CC1(C)CC(=O)c2cnc(NC3CC3)nc2C1 | 1%
COc1ccccc1-c1c(C)oc2cc(OC(C)=O)ccc2c1=O | i
CCOc1ccccc1NC(=O)c1cc(-c2ccc(OC)cc2OC)nc2ccccc12 | 45%
COc1ccc(S(=O)(=O)N(CC(=O)Nc2ccccc2C(=O)NCc2ccco2)c2ccc(C)cc2)cc1 | i
O=C(CN1C(=O)c2ccccc2S1(=O)=O)N1CCN(c2cccc(Cl)c2)CC1 | i
Cn1ncc(C#N)c1/N=C/N(Cc1ccccc1)Cc1ccccc1 | i
CN(C(=O)Nc1ccc(Cl)cc1)c1ccccc1 | i
Continuation.
SMILES | Mtb growth
CCOC(=O)c1ccc(NC(=O)CCOc2ccccc2)cc1 | ?
Cc1ccc(NC(=O)c2sc(NC(=O)CSc3ccccc3)c(C(=O)OC(C)C)c2C)cc1 | i
O=C(Cn1c(-c2cncs2)nc2ccccc21)Nc1ccc2c(c1)OCCO2 | 4%
O=c1oc(-c2cccs2)nc2scc(-c3ccccc3)c12 | i
CCc1c(C)c2ccc(OCC=C(C)C)c(C)c2oc1=O | i
OC1CCN(C(=S)Nc2ccc(Oc3ccccc3)cc2)CC1 | i
O=C(NCc1nc2ccccc2[nH]1)c1c(F)c(F)c(F)c(F)c1F | 1%
COc1ccc(NC(=O)CN(C2CCCCC2)S(=O)(=O)c2ccc(F)cc2)cc1OC | i
